AID504770: growth inhibitors of E. coli YBA685 in a screen for V. cholerae RctB (chromosome II replication) inhibitors; z-score (no concentration beside the values); 130,000 compounds, 0.27% hits; E. coli YBA685 rctB-dependent plasmid, OD600 growth, 3 h; hits give low values;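 active = z-score under -2 on both plates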;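 note: wells of about 30 µL received 100 nL stock; score is relative to mean and SD of the test wells; the first replicate is given; strong numbers were not always called active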
CapD inh: blocks the Bacillus anthracis CapD enzyme. purified CapD enzyme, fluorescence intensity read-out; hits give low values; some hits fall short of the stated cut. z-score (no concentration beside the values). 140,000 compounds, 0.23% hits;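 active = z-score under -4 in either of two replicates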;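 note: stock transfer was 100 nL into about 40 µL; score is relative to mean and spread of the plate; one replicate is shown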
* marks the source's active call; other numbers are inactive results. This is a subset. The share of hits here may be higher or lower than overall.

O=C(OCC1OC(n2cc(F)c(=O)[nH]c2=O)C(OC(=O)c2ccccc2)C1OC(=O)c1ccccc1)c1ccccc1 (configuration not stated) was read as CapD inh -1.23.
Cc1ccc2cc(C)c(N3CC(C)OC(C)C3)nc2c1 (configuration not stated) was read as AID504770 -0.55 and CapD inh 27.
Screening CCOC(=O)c1ccccc1Nc1nc2ccccc2c2nnc(C)n12 returned AID504770 0.5 and CapD inh 5.88.
`OC1(C#Cc2ccccc2)CCCCC1` gave AID504770 0.3.
`Cc1ccc(N2C(N)=NC(N)=NC2(C)C)cc1` gave AID504770 -0.5 and CapD inh 0.225.
`FC(F)(F)Oc1ccc(C2NCCc3sccc32)cc1` (configuration not stated) gave CapD inh -1.03.
Screening O=C(O)CNc1c(F)c(F)nc(F)c1F returned AID504770 -0.6 and CapD inh 0.88.
`O=C(c1ccc(CS(=O)(=O)c2ccc(Br)cc2)o1)N1CCN(Cc2ccc3c(c2)OCO3)CC1` gave AID504770 0.3 and CapD inh -0.41.
Cc1[nH]c(SCC(=O)O)nc1Cc1ccccc1 was read as AID504770 0.35.
Screening N#Cc1ccccc1CSc1nc2c(sc(=S)n2Cc2ccco2)c(=O)n1-c1ccc(F)cc1 returned AID504770 -0.45 and CapD inh -1.43.
For CC(=O)Nc1c(C(=O)N2CCN(c3ccccc3)CC2)oc2ccccc12 the results were AID504770 1.2 and CapD inh -2.54.
Screening CC1CCCCC1NC(=O)Cn1ncc2ccccc21 (configuration not stated) returned AID504770 -0.55 and CapD inh -1.73.
Screening Nc1nc(-c2cccc(NS(=O)(=O)c3ccccc3)c2)cs1 returned AID504770 0.1 and CapD inh 0.19.
Screening Fc1ccc(Nc2nc3nonc3nc2Nc2ccc(F)cc2)cc1 returned CapD inh -0.255.
For COc1ccc(-c2cc(-c3ccccc3)c(C#N)c(SCC(=O)N3CCN(C)CC3)n2)cc1 the results were CapD inh 4.99.
For Cn1c(C(C#N)C(=O)c2ccccc2I)nc2ccccc21 (configuration not stated) the results were AID504770 0.15 and CapD inh 0.805.
Screening O=C1c2cccc3cccc(c23)C(=O)N1CC1CCN(CC(O)COc2ccccc2F)CC1 (configuration not stated) returned CapD inh 76.2.
COc1ccccc1NC(=O)C1CC(=O)OC12CCOC(C)(C)C2 (configuration not stated) was read as AID504770 0.1 and CapD inh -0.64.
Screening CSc1ccc(C2CC(=O)Nc3c2c(=O)nc(SC)n3C)cc1 (configuration not stated) returned AID504770 -0.5.
`CCCN1CCC(N(C(=O)CCC(=O)NCC2CCCO2)C2CC2)CC1` (configuration not stated) gave CapD inh 0.06.

Arranged by molar mass (lowest first): 14 of the compounds above.
`OC1(C#Cc2ccccc2)CCCCC1` gave AID504770 0.3.
Screening O=C(O)CNc1c(F)c(F)nc(F)c1F returned AID504770 -0.6 and CapD inh 0.88.
Cc1ccc2cc(C)c(N3CC(C)OC(C)C3)nc2c1 (configuration not stated) was read as AID504770 -0.55 and CapD inh 27.
Screening CC1CCCCC1NC(=O)Cn1ncc2ccccc21 (configuration not stated) returned AID504770 -0.55 and CapD inh -1.73.
`FC(F)(F)Oc1ccc(C2NCCc3sccc32)cc1` (configuration not stated) gave CapD inh -1.03.
Screening Fc1ccc(Nc2nc3nonc3nc2Nc2ccc(F)cc2)cc1 returned CapD inh -0.255.
Screening CSc1ccc(C2CC(=O)Nc3c2c(=O)nc(SC)n3C)cc1 (configuration not stated) returned AID504770 -0.5.
For CC(=O)Nc1c(C(=O)N2CCN(c3ccccc3)CC2)oc2ccccc12 the results were AID504770 1.2 and CapD inh -2.54.
`CCCN1CCC(N(C(=O)CCC(=O)NCC2CCCO2)C2CC2)CC1` (configuration not stated) gave CapD inh 0.06.
For Cn1c(C(C#N)C(=O)c2ccccc2I)nc2ccccc21 (configuration not stated) the results were AID504770 0.15 and CapD inh 0.805.
For COc1ccc(-c2cc(-c3ccccc3)c(C#N)c(SCC(=O)N3CCN(C)CC3)n2)cc1 the results were CapD inh 4.99.
Screening O=C1c2cccc3cccc(c23)C(=O)N1CC1CCN(CC(O)COc2ccccc2F)CC1 (configuration not stated) returned CapD inh 76.2.
`O=C(c1ccc(CS(=O)(=O)c2ccc(Br)cc2)o1)N1CCN(Cc2ccc3c(c2)OCO3)CC1` gave AID504770 0.3 and CapD inh -0.41.
O=C(OCC1OC(n2cc(F)c(=O)[nH]c2=O)C(OC(=O)c2ccccc2)C1OC(=O)c1ccccc1)c1ccccc1 (configuration not stated) was read as CapD inh -1.23.

(more compounds)
For COC(=O)c1sccc1S(=O)(=O)Nc1ccc(N2CCN(C)CC2)cc1 the results were CapD inh -0.46.
For O=C(O)CCSc1nccn1Cc1ccccc1 the results were AID504770 2.75 and CapD inh -0.685.
Screening CCc1ccccc1NC(=O)CSC1=C(C#N)C(c2cc(OC)c(OC)c(OC)c2)C(C(=O)OC)C(=O)N1 (configuration not stated) returned CapD inh -0.615.
`CC(Sc1nnc(COc2ccc(Cl)cc2)n1C)C(N)=O` (configuration not stated) gave AID504770 -1.95.
Screening CCOC(=O)C1=C(c2ccccc2)OC(N)=C(C#N)C1c1ccc(C)cc1 (configuration not stated) returned CapD inh 3.55.
Screening CCn1c2ccccc2c2cc(CN3CCN(C(=O)CC(CC(=O)C4CC4)c4ccc(Br)cc4)CC3)ccc21 (configuration not stated) returned CapD inh 11.8.
`COc1ccc(CN)cc1Cn1cccn1` gave AID504770 -0.85.
For CCOC(=O)c1cccc(NC(=O)c2cc3c(=O)[nH]c4ccccc4c3n2C)c1 the results were AID504770 1.45 and CapD inh 0.17.
`COc1ccc(NS(=O)(=O)c2ccc(C)c(Cl)c2)cc1` gave AID504770 0.1 and CapD inh -0.04.
CN(C)/C=N/c1nc(-c2ccc3c(c2)OCO3)cs1 was read as AID504770 0.1.
`O=C(CC(C(=O)N1CCc2ccccc21)n1ccnc1)N1CCc2ccccc2C1` (configuration not stated) gave AID504770 1.2 and CapD inh 73.6.
O=C(COc1ccc(Cl)cc1)Nc1ccc2nc3n(c(=O)c2c1)CCCCC3 was read as AID504770 0.35 and CapD inh 0.37.
`CC(=O)OCC1OC(n2cc(F)c(=O)[nH]c2=O)C(OC(C)=O)C(OC(C)=O)C1OC(C)=O` (configuration not stated) gave CapD inh -1.
Screening Cn1c(CNC(=O)c2cccs2)cc2ccccc21 returned AID504770 -0.05.
For CN(C)NC1CCS(=O)(=O)C1 (configuration not stated) the results were AID504770 -0.65.
CCOc1cc(C(=O)Nc2ccc(S(=O)(=O)Nc3nc(C)cc(C)n3)cc2)cc(OCC)c1OCC was read as CapD inh -0.28.
For CCN1CCN(CC(=O)Nc2ccc(Cl)cn2)CC1 the results were AID504770 -1.2 and CapD inh 1.07.
For Cc1ccc(N=Cc2ccc(C)o2)cc1 the results were AID504770 -0.5.
COc1cc(C)c(C#N)c(OC)n1 was read as CapD inh -0.24.
For CSc1nc2c([nH]c3ccccc32)c(=O)n1C the results were AID504770 -0.9.
For CC(NC(=O)c1ccccc1)C(=O)NN (configuration not stated) the results were AID504770 -1.1 and CapD inh 0.06.
CC(=O)Oc1ccc(OCc2ccccc2)cc1 was read as AID504770 1.65 and CapD inh -0.26.
Screening COc1ccc(C(=O)NCc2n[nH]c(=O)c3ccccc23)c(OC)c1 returned AID504770 -1.05.
Screening Cc1ccc(NC(=O)COC(=O)c2c(C)nsc2N)cc1C returned AID504770 -0.55.
CCOc1cc(/C=C2\N=C(c3cccc(Cl)c3)OC2=O)cc(Br)c1OC(C)=O was read as CapD inh 0.605.
`Cc1ccc(C)c(NC(=O)C2=CCN(S(=O)(=O)c3ccc(F)cc3)CC2)c1` gave AID504770 0.1 and CapD inh 0.85.
For O=C(CCc1nc2ccccc2c(=O)[nH]1)N1CCN(c2ccccc2)CC1 the results were AID504770 -0.2.
`Cc1nc(SCC(=O)c2ccc3c(c2)OCCO3)c2c3c(sc2n1)CCCC3` gave CapD inh -0.155.
`COc1ccc(C2Nn3c(C)nnc3SC2C(=O)NCc2ccco2)cc1Cl` (configuration not stated) gave AID504770 -0.3 and CapD inh -0.03.
Screening CCCCNC(=O)Nc1ccc(S(=O)(=O)Nc2cccc(Cl)c2)cc1 returned AID504770 -0.8.
Cc1ccc(-c2cn3c(n2)sc2cc(C(=O)O)ccc23)c(C)c1 was read as AID504770 0.6 and CapD inh 0.365.
CCC(Sc1nc2n[nH]c(C)c2c(=N)n1-c1ccc(Oc2ccccc2)cc1)C(=O)NCCOC (configuration not stated) was read as CapD inh -0.085.
Screening C#CC1(O)CCC2C3CCC4=CC(=O)CCC4(C)C3CCC21C (configuration not stated) returned AID504770 0.15 and CapD inh 0.065.
For CCNC(=O)NC1(C(=O)O)CC2CCC1(C)C2(C)CC (configuration not stated) the results were AID504770 0.2.
O=c1onc(-c2cccnc2)n1-c1ccccc1 was read as AID504770 -0.05 and CapD inh 2.02.
For CC(C)(C)N1COc2c(cc(Cl)c3cccnc23)C1 the results were AID504770 1.1 and CapD inh 0.39.
CS(=O)(=O)C(C#N)=C1SCCCCS1 was read as AID504770 -0.5 and CapD inh -0.505.
For CSC1=NC2(CCN(C(=O)NC3CCCCC3)CC2)N=C1c1ccccc1 the results were AID504770 2.05 and CapD inh -1.43.
`CSC1=C(C#N)C(c2ccncc2)C(C(=O)Nc2ccccc2)=C(C)N1` (configuration not stated) gave CapD inh 0.17.
CCCCN(CC)Cc1ccc(CNC(=S)Nc2cccc(F)c2)o1 was read as AID504770 -0.5 and CapD inh 0.485.
Screening O=C1CCCc2cc(S(=O)(=O)NCCC(=O)NC3CCCCC3)ccc2N1 returned AID504770 0.2 and CapD inh 0.02.
`COC(=O)C1=CN(c2cccc(C(F)(F)F)c2)C=C(C(=O)OC)C1c1ccc(F)cc1` gave AID504770 0.8 and CapD inh 12.2.
For CN(C)c1ccc(C2Nc3ccc(C(=O)c4ccccc4)cc3NC3=C2C(=O)CC(C)(C)C3)cc1 (configuration not stated) the results were CapD inh 0.045.
O=C(c1ccc2c(c1)OCCO2)n1cccn1 was read as AID504770 -0.6 and CapD inh 1.68.
For O=C(NCc1cccnc1)c1ccc2c(=O)n(CC3CCCO3)c(=S)[nH]c2c1 (configuration not stated) the results were CapD inh 0.055.
CN(C)C(=O)NCCc1ccc(F)cc1 was read as AID504770 -0.85 and CapD inh 0.24.
For O=C(CN1CCNC(=O)C1)NCCc1ccc(F)cc1 the results were AID504770 1.1.
Cc1cccc(-n2c(SCc3c(C)noc3C)nc3ccccc32)c1 was read as AID504770 0.3.
`Cc1cc(C)cc(OC(C)C(=O)Nc2ccc3c(c2)n(C)c(=O)n3C)c1` (configuration not stated) gave AID504770 0.35.
For CCOCCOC(=O)C(C)Oc1ccc2c(=O)c(Oc3cccc(C)c3)c(C(F)(F)F)oc2c1 (configuration not stated) the results were CapD inh -0.545.
COc1cc(C(=O)Nc2cccc3c2C(=O)c2ccccc2C3=O)cc(OC)c1OC was read as CapD inh -1.03.
For CCCC1C(=O)N2C(N(C)C)=Nc3ccc(C)cc3N2C1=O (configuration not stated) the results were CapD inh 0.36.
Screening O=C1CCCN1CCCn1c(SCc2c(F)cccc2F)nc2ccccc2c1=O returned AID504770 -0.45 and CapD inh -0.615.
COc1ccc(C(=O)CN2C(=O)c3ccccc3S2(=O)=O)cc1 was read as AID504770 -0.6 and CapD inh -0.605.
`CCn1cc(CCC(=O)NCCN2CCOCC2)c2ccccc21` gave AID504770 -1.9 and CapD inh 1.67.
For O=S(=O)(Nc1ccccc1CO)c1ccc(S(=O)(=O)N2CCCC2)cc1 the results were AID504770 -0.75.
`O=C1CN(c2cccc(C(F)(F)F)c2)C(=O)CN1/N=C/c1cccnc1` gave AID504770 -0.5 and CapD inh -0.12.
Screening CCCCN1Cc2c(sc3c2CCCC3)N(C(C)=O)C1 returned AID504770 -1.1.
Screening CCOC(=O)c1nnn(-c2nc(OC)nc(N3CCCCC3)n2)c1C returned CapD inh -0.05.
`O=C(O)CN1C(=O)/C(=C2/C(=O)N(CC(=O)O)c3ccc(Br)cc32)SC1=S` gave CapD inh -0.73.
Screening CCc1nc2c(cnn2-c2ccc(F)cc2)c(=O)n1-c1ccc(OC)c(Cl)c1 returned AID504770 -0.6 and CapD inh -0.67.
`CNC(=O)C12CC3CC(CC(C3)C1)C2` gave AID504770 -0.6 and CapD inh 1.04.
For COc1cccc(C(N)=O)c1OC(=O)COc1ccc(Br)cc1 the results were AID504770 -0.15.
`COc1cccc(C(=O)N/N=C/c2cccc(C)n2)c1` gave CapD inh -0.89.
Screening Cc1ccccc1NC1=C(C(=O)c2ccccc2)N(C)S(=O)(=O)c2ccccc21 returned AID504770 -0.9 and CapD inh -0.935.
Screening N=C(N)SCC1CN=C(N2CCCC2)S1 (configuration not stated) returned AID504770 -0.1 and CapD inh -0.83.
Screening Cc1ccc(Cn2nc(C)c(C(=O)N=c3sccn3C)c2Cl)cc1 returned AID504770 -0.6.
`COc1ccccc1Oc1ccc(C(F)(F)F)cc1NC(=O)c1ccc(Cl)cc1Cl` gave CapD inh 0.195.
For O=C1Nc2ccccc2C1=Nc1ccc(Br)cc1 the results were AID504770 -0.65.
Cc1ccc2c(c1)c1c3n2CCCNC3CCC1 (configuration not stated) was read as AID504770 -1.2 and CapD inh 0.965.
For Cc1[nH]c(=S)c(C#N)c(C)c1Cc1ccc(Cl)cc1Cl the results were AID504770 1.45 and CapD inh 0.585.
For Cc1ccc2oc(=O)c(/C=C(\O)CC(C)C)nc2c1 the results were AID504770 1.1 and CapD inh 0.435.
CC1(C)CC(=O)CC(c2ccccc2)(C(F)(F)F)O1 (configuration not stated) was read as AID504770 0.05 and CapD inh 0.06.
`CS(C)(=O)=NS(=O)(=O)c1cc(S(=O)(=O)N=S(C)(C)=O)c(Cl)s1` gave AID504770 -0.85 and CapD inh 0.24.
Screening CCN(CC)C(=O)c1c[nH]c2ccc(S(=O)(=O)Nc3cc(C)cc(C)c3)cc2c1=O returned AID504770 -0.65 and CapD inh -0.785.
`O=S(=O)(NCc1cccs1)c1cccc2cccnc12` gave AID504770 -1.2 and CapD inh 0.21.
Screening CC(C)(C)NC(=S)N/N=C/c1ccccc1SC(C)(C)C returned CapD inh 0.225.
For CCOC(=O)NC1(Nc2ccccc2)Oc2ccccc2O1 the results were AID504770 0.15.

Screens: PubChem, ICCB-Longwood Screening Facility, Harvard Medical School
